FGF22 binding = binders of recombinant human FGF22 by thermal shift | Q9HCT0 | SYPRO orange fluorescence; percent of sucrose octasulfate shift, DMSO zero | calls only at 9.99 µM | 340,000 compounds, 1.5% hits;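 active = melting point raised past a set limit in the mean and every replicate; inconclusive = no clear call; three in four hits are not shown here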
Target sequence (Q9HCT0 whole entry, looked up): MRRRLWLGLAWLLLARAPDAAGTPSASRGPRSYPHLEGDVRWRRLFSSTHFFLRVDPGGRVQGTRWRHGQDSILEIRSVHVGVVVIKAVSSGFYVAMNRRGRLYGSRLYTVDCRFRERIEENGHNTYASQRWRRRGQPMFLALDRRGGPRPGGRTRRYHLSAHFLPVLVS
AF4-AF9 inh = inhibitors of human MLL-AF4/AF9 interaction; AlphaScreen, biotin-AF4 peptide binding to FLAG-AF9; inhibition, % at 10 µM; 350,000 compounds, 0.47% hits; AID 651704;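 active = every replicate reaching a set inhibition limit, whatever the replicate mean, cut at about 25% in these data; inconclusive = mean inhibition reaches that limit but some replicates miss it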;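 note: 0% = plate neutral control median and 100% = total signal loss; the record names both 10 and 1 µM as test concentration; the first replicate is given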
Target sequence (P42568 whole entry, looked up): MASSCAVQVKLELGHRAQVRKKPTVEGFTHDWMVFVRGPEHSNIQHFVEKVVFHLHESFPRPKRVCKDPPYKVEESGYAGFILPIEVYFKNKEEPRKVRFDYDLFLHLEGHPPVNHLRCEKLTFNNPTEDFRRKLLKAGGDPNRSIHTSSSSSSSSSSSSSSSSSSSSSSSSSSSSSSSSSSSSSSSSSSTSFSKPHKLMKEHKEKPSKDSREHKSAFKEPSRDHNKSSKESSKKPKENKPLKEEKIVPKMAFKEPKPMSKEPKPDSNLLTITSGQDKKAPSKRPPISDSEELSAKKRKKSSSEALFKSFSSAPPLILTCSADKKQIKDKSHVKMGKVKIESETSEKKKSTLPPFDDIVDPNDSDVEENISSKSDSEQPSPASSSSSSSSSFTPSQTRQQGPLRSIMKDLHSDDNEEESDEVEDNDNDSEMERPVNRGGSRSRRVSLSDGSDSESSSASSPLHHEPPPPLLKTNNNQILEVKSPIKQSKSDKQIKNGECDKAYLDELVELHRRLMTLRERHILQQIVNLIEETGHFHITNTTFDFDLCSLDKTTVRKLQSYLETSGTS
HNF4A DNA FP = change in binding of human HNF4 alpha to DNA; HNF4a-FITC DNA binding, fluorescence polarization, 1 h; activity change, % at 10 µM; 360,000 compounds, 0.3% hits; AID 1224865; in the data active = activity change above about 30%, passing the limit was not always enough;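 note: controls were the assay level and a saturating level of protein; the project sought stronger binding though the title names inhibitors; some compounds called inactive have numbers as strong as hits; positive values seem to mean higher polarization but the record does not say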
E coli growth = blocks Escherichia coli growth; OD600, 23 h; stronger effect = lower value; 330,000 compounds, 0.21% hits; OD600 absorbance (no concentration beside the values);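 active = OD600 absorbance below the run mean of sample wells minus 3.6 SD, in any replicate, cut at about 0.56 in these data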;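 note: stock transfer was 300 nL into about 60 µL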
Vif TR-FRET = inhibitors of Vif binding to APOBEC3G peptide, primary screen, biochemical, TR-FRET, GST-Vif 1-94, biotin-A3G peptide, dose response retest (AID 1117319) | TR-FRET GST-Vif / biotin-A3G peptide binding; higher % means a stronger effect; test concentration not given here; strong numbers were not always called active | inhibition, %, or IC50 in µM where a hit was titrated | 260,000 compounds, 0.57% hits;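 active = above the screen mean plus three standard deviations and confirmed in dose response; inconclusive = results disagree or hit not tested in dose response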;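 note: Vif residues 1-94 fused to GST binding biotinylated APOBEC3G peptide 110-148; 0% = full assay without inhibitor and 100% = GST in place of GST-Vif; retest series ran down from 100 µM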
RanGTP-Imp inh = disruptors of Ran-importin-beta complex formation – biochemical, FRET, CFP-Ran, YFP-importin-beta, homogeneous, primary screen. cell-free CFP-Ran/YFP-importin-beta FRET ratio. inhibition, % (concentration not given with the values). 300,000 compounds, 1.1% hits. AID 2216;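 active = most replicates above 15%; inconclusive = exactly half above 15%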;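 note: 0% = DMSO wells and 100% = Ran loaded with GDP instead of GTP; wells of about 40 µL received 100 nL stock; the first replicate is given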
UCH37 inh = human UCH37 deubiquitinating enzyme inhibition | 330,000 compounds, 0.33% hits | inhibition, % (test concentration not listed) | purified proteasome/UCH37, Ub-AMC cleavage fluorescence | AID 588478;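 active = mean of two replicates above 20%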;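 note: 0% = compound-free wells with enzyme and 100% = wells lacking proteasome; stock transfer was 100 nL into about 20 µL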
Target sequence (Q9Y5K5 whole entry, looked up): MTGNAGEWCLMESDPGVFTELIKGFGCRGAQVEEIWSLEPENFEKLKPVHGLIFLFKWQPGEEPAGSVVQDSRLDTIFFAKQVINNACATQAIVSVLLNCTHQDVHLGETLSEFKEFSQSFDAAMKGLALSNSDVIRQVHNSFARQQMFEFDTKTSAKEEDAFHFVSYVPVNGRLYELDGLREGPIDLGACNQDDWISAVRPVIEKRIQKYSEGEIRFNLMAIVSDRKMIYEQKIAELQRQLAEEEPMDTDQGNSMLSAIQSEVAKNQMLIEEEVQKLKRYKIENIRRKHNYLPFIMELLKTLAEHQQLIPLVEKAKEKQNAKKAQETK
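Material: Human UCH37 enzyme supplied as purified proteasome complex | Schedule: 30 min compound-proteasome preincubation then 25 min substrate reaction, room temperature | Detection: AMC fluorescence from Ub-AMC cleavage, excitation 355 nm, emission 460 nm | Benchmarks: Wells without proteasome as full block, compound-free enzyme plus substrate as uninhibited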
An asterisk follows results filed as active; i = inactive; ? = inconclusive; . = no result given; + = active, no number; & = joins results of further samples.

SMILES	FGF22 binding	AF4-AF9 inh	HNF4A DNA FP	E coli growth	Vif TR-FRET	RanGTP-Imp inh	UCH37 inh
CC(=O)NC(c1cccc(F)c1)c1nc(-c2ccc(C)c(C)c2)cs1 (stereo not drawn)	i	9.6	7.4	.	.	.	.
CC(=O)NS(=O)(=O)c1ccc(N2C(=O)CC(Sc3nccc(C)n3)C2=O)cc1 (stereo not drawn)	i	2.6	2.1	0.67	.	-1.8	5.6
O=C(CSc1nc2ncc(Cl)cc2[nH]1)NCC(=O)Nc1ccc(F)c(F)c1F	i	-41	1.1	0.67	7%	7.3	3.1
Cc1ccc(C(C)C)c(OCc2nnc3n2CCCCC3)c1	.	.	-1.3	0.66	?	-11	3.9
C=CCOc1c(Br)cc(CNc2ccc(NC(=O)CCC)cc2)cc1OCC	.	.	1.2	0.73	9%	-0.6	-4.1
CC1CCN(C(=O)c2ccccc2SCC(=O)NCC2CCCCC2)CC1	i	-8.8	2.7	0.62	-5%	2.5	-3.8
CCOc1ccc2nc(SCC(=O)N3CCCCCC3)c(C#N)cc2c1	.	.	1.6	0.76	-77%	?	-0.3
O=C1CCCN1c1cc(Cl)cc(Cl)c1	i	-0.4	-1.8	0.68	3%	-1.7	0.1
COCCCNc1oc(-c2ccccc2Cl)nc1C#N	i	2.9	1.9	0.73	-6%	-3.1	-22
CCOC(=O)Cn1nc(/C=C/c2ccc(C)cc2)ccc1=O	.	.	-0.2	0.77	0%	-4.1	-56
COc1ccc(Br)cc1C(=O)N/N=C/c1ccc2c(c1)n(C)c(=O)n2C	i	1.1	5.4	.	24%	-2.2	.
CCn1c(SC(C)C)nnc1C1CCN(S(=O)(=O)c2ccc(OC)cc2)CC1	.	.	3.4	0.72	-4%	-0.8	1.5
Cc1ccc2nc(Nc3ccc(Cl)cc3)c3nncn3c2c1	i	-1.1	5.0	0.67	.	-0.8	-61
O=C(NC1CCCCC1)C(c1ccc2ncccc2c1)N(Cc1ccc(F)cc1)C(=O)c1cccs1 (stereo not drawn)	.	.	-3.6	0.68	?	?	0.6
Cc1[nH]c2ccccc2c1C(c1ccncc1)N1CCCCC1 (stereo not drawn)	i	3.6	3.1	0.74	?	-0.3	1.3
COc1cccc(/C=N/N2CCN(c3ccccc3OC)CC2)c1	.	.	1.8	.	1%	1.0	.
CCN(CC)C(=O)COc1ccc(-c2nnc(N3CCCCC3)c3ccccc23)cc1	.	.	2.0	0.71	-4%	1.4	2.7
CCCCC[C@H](O)/C=C/C1C(=O)C=C[C@H]1C/C=C\CCCC(=O)OC (stereo partly drawn)	i	-8.9	-5.1	0.71	4%	.	6.0
CCOc1ccc(NC(=O)COC(=O)c2cc(C)oc2C)cc1	i	-0.9	-3.5	0.72	.	.	2.3
Cc1nc(C)c(C(=O)C2=C(O)C(=O)N(CCN(C)C)C2c2ccco2)s1 (stereo not drawn)	i	.	-3.1	0.63	-10%	-1.3	9.0
Cc1noc(C)c1COC(=O)CCCOc1ccc(Cl)cc1Cl	.	.	0.1	0.69	1%	-0.3	2.3
CC(NC(=O)COC(=O)c1ccc(Br)o1)c1ccccc1 (stereo not drawn)	i	-18	-0.3	0.6	6%	.	1.6
O=C(CN(Cc1cccs1)C(=O)CCC(=O)Nc1ccccn1)NCc1ccccc1	i	0.1	1.5	0.74	.	-3.2	3.5
Cn1c(=O)c2c(ncn2CC(=O)N/N=C/c2cn[nH]c2-c2ccc(F)cc2)n(C)c1=O	i	0.1	0.3	.	6%	-1.8	.
O=Nc1c2cc(-c3ccccc3)[nH]nc-2c2ccccc12	i	-4.8	-5.8	0.7	6%	5.4	1.6
O=C(CN(Cc1ccccc1)C(=O)CNS(=O)(=O)c1ccc(F)cc1)NCc1ccco1	i	-2.0	-5.3	0.67	19%	-0.4	2.4
CC(=O)C1=C(C)N(c2ccccc2)C(=O)C1(NS(=O)(=O)c1ccc(N)cc1)C(F)(F)F (stereo not drawn)	i	-1.0	0.5	0.68	.	3.2	4.2
Cc1ccc2cc3cc(C(=O)NCCN4CCOCC4)oc3nc2c1	.	.	1.6	0.72	4%	-0.9	-314
O=C(Nc1ccc(N2CCOCC2)cc1)C1CC(O)CN1S(=O)(=O)c1ccc(Cl)cc1 (stereo not drawn)	i	1.5	4.9	0.72	-1%	1.9	3.4
COc1ccccc1-n1c(-c2ccc(F)cc2)coc1=O	.	.	3.0	0.72	-3%	-4.0	-1.0
COCCNC(=S)N(C)[C@H]1C[C@H]2c3cc(Oc4ccccc4C)ccc3CCN2C(=O)[C@H]1[C@H](C)O	i	5.0	6.2	.	1%	.	.
Cn1c(=O)[nH]c(=O)c2c1nc(N1CCOCC1)n2CC(=O)c1ccccc1	i	-8.9	1.0	0.7	.	0.8	2.2
COc1ccc(C[C@H](N)C(=O)N[C@H]2[C@@H](O)[C@H](n3cnc4c(N(C)C)ncnc43)O[C@@H]2CO)cc1	i	-1.2	-1.7	.	.	.	0.8
CCOC(=O)c1nc(Nc2ccc(C(=O)O)cc2)c2ccccc2n1	.	.	-1.1	0.75	6%	3.5	11
COc1cc(/C=C(\C#N)C(=O)Nc2ccc(C(=O)O)cc2)ccc1OC(=O)c1cccc(F)c1	i	-1.8	2.5	.	.	?	.
COC(=O)c1ccccc1NC(=O)COC(C)=O	.	.	-0.9	0.71	4%	1.0	2.6
c1ccc(N/N=C(\Cc2nc3ccccc3[nH]2)c2ccccc2)cc1	i	-2.0	-3.6	.	.	-5.6	.
CCCNc1c(N)c(=O)c1=O	i	1.1	-0.8	0.6	21%	-4.7	0.5
CCOc1ccc(N2C(=O)C3ON(c4ccccc4)C(c4cccs4)C3C2=O)cc1 (stereo not drawn)	i	-1.3	-0.3	0.64	2%	-1.8	5.6
Cc1ccc(S(=O)(=O)NCc2ccc(C(=O)NC3CCCCC3)cc2)cc1	i	0.5	-0.2	0.7	.	-1.2	5.6
CCn1c(SCC(=O)NC2CC2)nnc1-c1ccc(F)cc1	i	-2.5	5.0	0.69	0%	4.5	2.0
O=C(N/N=C/c1ccc2c(c1)OCO2)C(=O)Nc1ccccc1Cl	i	-0.8	-1.0	.	.	.	.
O=C(COc1cc2oc(=O)c3c(c2cc1Cl)CCCC3)N1C[C@H]2C[C@@H](C1)c1cccc(=O)n1C2	i	-10	2.3	0.73	.	?	-82
Cc1c(C(=O)NNC(=O)c2ccncc2)oc2ccccc12	i	1.4	-3.5	0.7	16%	.	4.3
COc1ccc2c(c1)SC(C)CC2=O (stereo not drawn)	.	.	2.0	0.72	1%	-0.8	-6.6
CC(C)=CC(=O)N1CCC(Oc2cccc(C(=O)NCc3ccccn3)c2)CC1	i	2.3	-2.1	.	5%	.	.
O=C(N/N=C/c1ccsc1)c1c[nH]c2ccccc12	+	-1.8	-0.2	.	.	?	.
CSc1ccc(CNCCCN(C)C)cc1	i	7.4	0.1	0.7	-5%	3.3	-1.8
O=C(CSc1ccccc1)NC(=O)NCc1ccccc1	i	-0.7	-0.1	0.7	-5%	-0.6	4.2
CC1(c2ccccc2)NC(=O)N(CC(=O)Nc2ccc3c(c2)OCO3)C1=O (stereo not drawn)	.	.	1.8	0.67	27%	?	0.9
C/C(O)=C(\C#N)P(=O)(c1ccccc1)c1ccccc1	i	-2.5	-1.4	0.69	0%	-1.0	5.5
O=C(NNC(=S)NC(=O)c1ccccc1)c1cccnc1	i	-5.9	0.7	0.59	.	0.7	6.6
COc1ccccc1NC(=O)C(=O)/C=C(\O)c1ccccc1	i	3.9	4.0	0.61	8%	0.8	3.5
Nc1nnc(SCc2ccccc2F)s1	i	-22	-0.3	0.67	9%	4.9	-1.7
Cc1ccc2nc(NC(=O)C3CCN(S(=O)(=O)c4cccs4)CC3)sc2c1	.	.	-2.3	0.75	-4%	3.2	-1.5
CCc1cc(=O)n2c([nH]c3ccccc32)c1C#N	.	.	2.8	0.63	15%	-5.0	-167
O=C1OCCC1Sc1nc2ccccc2c(=O)n1Cc1ccc(F)cc1 (stereo not drawn)	i	-1.0	-1.1	0.66	6%	0.4	1.8
COc1ccc(CCN(C)C2CCCN(C(=O)CCSC)C2)cc1OC (stereo not drawn)	i	-4.4	1.6	0.66	.	-0.7	5.2
CCCN(CCC)Cc1c(C(=O)N/N=C/c2ccco2)nnn1-c1nonc1N	i	-0.8	-1.6	.	.	-4.4	.
O=C(Nc1nnc(-c2ccccc2)o1)c1cc(Cl)sc1Cl	i	2.3	-1.8	.	.	2.2	.

Brought forward from above: 4 compounds, then new ones.
SMILES	FGF22 binding	AF4-AF9 inh	HNF4A DNA FP	E coli growth	Vif TR-FRET	RanGTP-Imp inh	UCH37 inh
O=C1OCCC1Sc1nc2ccccc2c(=O)n1Cc1ccc(F)cc1 (stereo not drawn)	i	-1.0	-1.1	0.66	6%	0.4	1.8
COc1ccc(CCN(C)C2CCCN(C(=O)CCSC)C2)cc1OC (stereo not drawn)	i	-4.4	1.6	0.66	.	-0.7	5.2
CCCN(CCC)Cc1c(C(=O)N/N=C/c2ccco2)nnn1-c1nonc1N	i	-0.8	-1.6	.	.	-4.4	.
O=C(Nc1nnc(-c2ccccc2)o1)c1cc(Cl)sc1Cl	i	2.3	-1.8	.	.	2.2	.
CN1CC(c2ccccc2Cl)C2(COc3ccccc3C2=O)C12C(=O)Nc1ccccc12 (stereo not drawn)	.	.	9.2	0.75	0%	-2.2	1.4
COCCc1nc2ccc(C(=O)N3CCCC(CCCO)C3)cc2o1 (stereo not drawn)	i	-2.0	-3.5	0.71	.	-2.6	0.8
COCc1cc(C)nc(SCC[N+](C)(C)CC(=O)Nc2ccccc2)c1C#N	.	2.1	-5.7	0.68	1%	-0.5	0.7
CC1CCCC(NC(=O)NC(=O)COC(=O)C2=NN(c3ccccc3)C(=O)CC2)C1C (stereo not drawn)	i	-0.9	0.4	0.66	.	.	0.4
O=C(NC1CCN(Cc2ccccc2)CC1)C1CCN(c2nnc(-n3cccc3)s2)CC1	i	1.8	2.7	0.74	7%&-3%	0.4	3.3
CC(C)CCN1C(Nc2ccccc2)=NC[C@@H]1C	i	-1.1	1.9	.	.	0.0	-1.0
COC(=O)c1c(C)nn(-c2ccccc2)c1N	i	9.0	-0.7	0.7	.	-2.0	2.0
CC1(c2ccccc2Cl)NC(=O)N(CC(=O)Nc2ccc3c(c2)OCO3)C1=O (stereo not drawn)	i	-1.7	-2.9	0.67	5%	3.8	5.4
CCN1CCN(C(=O)c2cc3c(s2)-c2c(C)cccc2OC3)CC1	.	.	1.8	0.71	.	-3.9	-447
Cc1oc(-c2cccc(Cl)c2)nc1CN1CCCC(C(=O)NCCCN2CCOCC2)C1 (stereo not drawn)	.	.	1.2	0.68	20%	?	-2.0
O=C1CC(N2CCSCC2)C(=O)N1CCc1ccccc1 (stereo not drawn)	.	.	2.0	0.73	3%	5.8	1.5
CO[C@@]1(NC(=O)CSCC#N)C(=O)N2C(C(=O)O)=C(CSc3nnnn3C)CS[C@@H]21	+	-3.5	-57	.	0%	6.6	2.3
CN(C(=O)COC(=O)c1cc(S(=O)(=O)N2CCOCC2)ccc1Cl)C1CCS(=O)(=O)C1 (stereo not drawn)	i	3.9	0.5	0.67	-7%	5.2	-0.2
COC(=O)NC1CSCC1OC(=O)CCN1C(=O)c2ccccc2C1=O (stereo not drawn)	.	.	2.8	0.76	-9%	-4.1	0.5
Cc1cccc(OCC(=O)N2CCN(C(=O)CCC3CCCC3)CC2)c1	.	.	1.7	0.74	1%	-6.1	0.4

Compound activity as filed in PubChem BioAssay.

Only part of the results is shown; count on the stated rates, not on these rows.
